# From PubChem BioAssay
# D2 PAM = positive allosteric modulators of human D2 dopamine receptor | AID 624464 | potentiation, % (no concentration beside the values) | actives 0.23% (n = 360,000) | DiscoveRx D2 beta-arrestin cells, luminescence, 90 min; 100% = 57 uM dopamine signal; active = potentiation of 50% or more; inconclusive = 30% to 50%; inactive = 30% or less;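 further: compound concentration not given in the record; tested on top of an EC20 dose of dopamine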
# Target sequence (P14416 whole entry, looked up): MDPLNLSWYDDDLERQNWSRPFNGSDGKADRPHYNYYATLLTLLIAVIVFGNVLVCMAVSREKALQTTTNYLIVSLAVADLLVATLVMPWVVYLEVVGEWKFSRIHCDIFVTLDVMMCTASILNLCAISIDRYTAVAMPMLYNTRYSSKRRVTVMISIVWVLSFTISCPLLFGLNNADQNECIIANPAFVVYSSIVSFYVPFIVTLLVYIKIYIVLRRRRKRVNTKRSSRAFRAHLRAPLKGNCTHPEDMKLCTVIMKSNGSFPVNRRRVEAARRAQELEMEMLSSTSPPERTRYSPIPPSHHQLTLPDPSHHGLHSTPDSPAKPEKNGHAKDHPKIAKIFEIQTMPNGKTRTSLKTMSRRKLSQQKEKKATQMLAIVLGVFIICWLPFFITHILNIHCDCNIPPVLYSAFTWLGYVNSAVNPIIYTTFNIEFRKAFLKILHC
#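 PathHunter beta-arrestin assay in DiscoveRx D2 cells. Compounds were added with an EC20 of dopamine (50 nM final) for 90 min at 37 deg C. Luminescence was read 1 h after detection reagent, with 57 uM dopamine as the EC100 control.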
# D2 agonist = human D2 receptor agonism in beta-arrestin assay; actives 0.084% (n = 360,000); P14416; DiscoveRx PathHunter D2 beta-arrestin, luminescence, 90 min; 100% = 57 uM dopamine signal; activation, % (test concentration not listed); in the data active = activation above about 40%; inconclusive = about 15% to 40%; inactive = below about 15%; further: compound concentration not given in the record; the text of the record calls up to 30% inactive
#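 DiscoveRx PathHunter D2 beta-arrestin cells (2,100/well) attached overnight, then compound-stimulated 90 min at 37 C in HBSS/10 mM HEPES/0.1% Tween-20 buffer; beta-galactosidase complementation read by luminescence after 1 h at ambient temperature. Dopamine 57 uM final (EC100) as control.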
# gsp agonist = activates gsp, the McCune-Albright syndrome mutation. actives 0.13% (n = 340,000). Potency, µM (doses to about 76.9 µM), for inactives: top-dose activation (cAMP increase), hits mostly activators. gsp mutant cells, cAMP HTRF, 30 min; control for the full effect not named in the record; active = well fitted activation curve with a large enough effect; inconclusive = small, poorly fitted or top-dose-only effect, or another doubt; inactive = no such curve, though single readings can be large or run the other way; cell line not stated here;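 further: phosphodiesterase inhibitor Ro 20-1724 added with compounds to block cAMP breakdown; potency means the concentration at half of the fitted maximal effect; nearly all actives have a fitted effect of over 60% in size; about a fifth of the inactives were tested at one dose only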
#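 Cells in DMEM/10% FBS with G418 were pretreated with compounds in DMSO plus […] (300 uM stock) for 30 min at 37C. cAMP was measured by HTRF (cAMP-d2 plus anti-cAMP antibody-K) after 30 min at room temperature.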
# Six1-Eya2 inh = Six1/Eya2 interaction inhibition. AID 651725. actives 0.56% (n = 360,000). AlphaScreen GST-Six1/His-Eya2 binding, biochemical; active compounds read low; control for the full effect not named in the record. Q15475+O00167. activity change, % (concentration not given with the values); in the data active = activity change below about -65%; inconclusive = about -30% to -65%; inactive = above about -30%; further: on the % scale 0 is the no-effect control and ±100 the full control effect
#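 Homogeneous AlphaScreen proximity assay pairing GST-Six1 with His-tagged Eya2 (added as 5X mix: 250 nM and 500 nM) in 50 mM Tris pH 8.0, 300 mM NaCl, 1 mM TCEP. Glutathione donor and nickel acceptor beads; 1 h, 37 °C, dark.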
# gsp antagonist = antagonizes gsp, the McCune-Albright syndrome mutation | gsp-mutant cells, cAMP HTRF, 30 min; control for the full effect not named in the record | Potency, µM (series often up to 76.9 µM), inactives show at the highest dose activity change, negative = inhibition, usual class: inhibitors | actives 0.4% (n = 340,000) | AID 624288; active = falling curve of any shape with a large fitted effect; inconclusive = falling curve, mostly with a smaller effect; inactive = flat or rising curve; cell line not stated here;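 further: intracellular cAMP measured with PDE inhibitor Ro 20-1724 present during compound exposure; potency means the concentration at half of the fitted maximal effect; on the % scale 0 is the no-effect control and ±100 the full control effect; nearly all actives have a fitted effect of over 65% in size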
#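 Cells, 2000/well, grown 16–24 h in DMEM 10% FBS with 0.5 mg/ml G418, then compounds plus […] (300 uM addition stock), 30 min at 37C. cAMP read by HTRF (cAMP-d2 and anti-cAMP antibody-K in lysis buffer) after 30 min RT.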
# CtBP-E1A inh = inhibitors of CtBP/E1A interaction. AlphaScreen GST-E1A/His-CtBP binding, 1536-well; active compounds read low; control for the full effect not named in the record. activity change, % (concentration not given with the values). actives 0.49% (n = 340,000); in the data active means activity change below about -65%; inconclusive means about -30% to -65%; inactive means above about -30%; further: on the % scale 0 is the no-effect control and ±100 the full control effect
#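 Homogeneous bead-based format: GST-tagged E1A captured on glutathione donor beads, His-tagged CtBP on nickel acceptor beads; compounds precede bead addition by 2 h at 37 °C.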
# Numbers without * were called inactive; ? = inconclusive; . = no result given; [ ] = remark or other dose.
SMILES,D2 PAM,D2 agonist,gsp agonist,Six1-Eya2 inh,gsp antagonist,CtBP-E1A inh
CCOC(=O)c1c(C)n(C)c2ccc(OCC(O)Cn3nc(C)cc3C)cc12 (stereo not given),-14,0.4,22%,1,0%,-12
Cc1cnc(C(=O)Nc2ccccc2F)cn1,-9,-2.6,-4%,-4,4%,2
COC(=O)c1cccc(C23CC4(C2)[C@H](CN(Cc2ccc(C(F)(F)F)cc2)[C@@H]4c2ccccc2)C3c2ccccc2)c1 (stereo not given in full),-6,-1.6,.,-5,6%,-4
COc1ccccc1-c1cnc(C(O)c2cccc(F)c2)[nH]1 (stereo not given),-11,-5.4,.,-9,.,0
O=C(/C=C\Nc1ccc(Cl)cn1)c1ccc(Br)cc1,-12,0.5,0%[15.4 µM],7,-15%,12
Cc1ccc2[nH]c3c(=O)n(CCc4cnc[nH]4)cnc3c2c1,-23,-2.7,-3%,-3,9%,-1
CC(C)c1nc2sc3c(=S)nc[nH]c3c2c2c1CCC2,-5,-9.5,3%[15.4 µM],-6,2%,-2
c1ccc2c3c([nH]c2c1)C(C1CCCCC1)N(Cc1ncc[nH]1)CC3 (stereo not given),-14,-5.2,26%,-9,1%,-15
Cc1c(Cl)cccc1N(CC(=O)NC1CCCCC1)S(C)(=O)=O,-3,-4.5,-33%,5,1%,0
COc1ccc(C(C)=O)cc1CN1CCCCC1,-13,-2.1,-15%,4,-5%,6
COc1ccc2c(C)cc(=O)oc2c1OCC(O)CN1CCOCC1 (stereo not given),-12,-7.3,.,-12,.,4
O=C(c1ccc([N+](=O)[O-])cc1)N1CCSC1c1ccc(Cl)cc1 (stereo not given),-4,3.9,-40%[inhibitor],-2,9%,.
CN1/C(=C/C2CC(=O)NC2=O)C(C)(C)c2ccccc21 (stereo not given),-5,3.3,3%,-7,-11%,5
COc1ccccc1CNS(=O)(=O)c1c(C)noc1C,8,-3.0,?,3,-2%,2
Cc1ccc(Nc2nc(NCC3CCCO3)nc(N)c2[N+](=O)[O-])cc1 (stereo not given),10,-3.6,4%,-3,2%,19
O=C(Nc1ccc2c(c1)OCO2)c1cc(-c2cccnc2)nc2ccccc12,-1,2.6,-18%,-25,?,-8
COc1ccccc1OP(=O)(O)Oc1ccccc1OC,0,2.1,-3%,4,10%,13
O=C(CC1Sc2ncnn2C1=O)Nc1ccc(Cl)cc1 (stereo not given),-1,0.4,-5%[15.4 µM],-5,8%,-4
Cc1cccc(C(=O)OCC(=O)Nc2ccc(N3CCCCC3)cc2)c1O,-6,-1.8,7%,-2,3%,-1
COc1ccc(CCN(C(=O)C(F)(F)F)C(C(=O)NC2CCCCC2)c2cccs2)cc1 (stereo not given),-9,-2.2,-30%,-1,-13%,.
Cc1ccc(OC2=NS(=O)(=O)c3ccccc32)cc1,-9,0.8,-5%,7,12%,-4
O=C(NCN1CCN(c2ccccc2F)CC1)c1cccnc1,-8,0.5,3%,0,2%,4
C/C(N)=C(/C#N)C(=O)CSc1nnc(-c2ccc3c(c2)OCO3)o1,5,-2.4,2%,4,4%,4
CC(C)(C)NC(=O)C(c1ccc(F)cc1)N(CC1CCCO1)C(=O)CCC(=O)Nc1ccccn1 (stereo not given),-33,-3.0,-4%[15.4 µM],-23,8%,-9
Cc1ccc2[nH]c(CCN(C)C)c(CN3CCOCC3)c2c1,-2,4.6,-36%[inhibitor],0,16%,2
# Following part.
SMILES,D2 PAM,D2 agonist,gsp agonist,Six1-Eya2 inh,gsp antagonist,CtBP-E1A inh
CC(C)c1ccc(-c2noc(C3CCCN(C(=O)c4ccc(F)cc4F)C3)n2)cc1 (stereo not given),3,5.6,10%,1,-32%,6
Cc1ccccc1OCC(O)CN(Cc1ccccc1O)C1CCCCC1 (stereo not given),-5,1.2,?,-2,-2%,3
O=C(c1cc(COc2ccc(F)cc2Cl)on1)N1CCCCCCC1,-8,-2.9,?,6,7%,19
NC1=NS(=O)(=O)NC1c1cccc(F)c1 (stereo not given),1,1.0,11%,10,8%,7
O=C(NCCCn1ccnc1)c1ccc(Cl)c(S(=O)(=O)N2CCOCC2)c1,-7,2.1,-2%,-4,9%,-9
O=C(c1ccc(N2CCN(C(=O)c3cccc(F)c3)CC2)cc1)c1cccc(F)c1,0,2.4,3%,7,32µM*,-7
O=C1CSC(c2cccc([N+](=O)[O-])c2)N1CCc1ccccc1 (stereo not given),-4,1.4,11%[15.4 µM],-18,-16%,-2
O=C(O)CN1C(=O)/C(=C\c2cc(Br)ccc2OCc2ccc(Cl)cc2)SC1=S,-8,-4.8,5%,-13,-23%,.
CC(C)(C)NC(=O)CC(c1ccccc1)c1ccccc1O (stereo not given),-6,-0.6,-1%,6,-8%,-8
Cc1ccc(NC(=O)c2ccc(C)c(NC3=NC4CS(=O)(=O)CC4S3)c2)cc1C (stereo not given),-9,-4.6,1%,1,-2%,-4
CCC(C(=O)NCc1ccc(OC)cc1)n1nc(C)n2c(cc3occc32)c1=O (stereo not given),3,-2.2,?,0,-5%,1
CCCNC(=O)COc1ccc(S(=O)(=O)Nc2ccc(C)cc2)cc1,-14,-1.6,-42%[inhibitor],4,0%,4
Cn1c(=O)n(Cc2ccc(Br)cc2)c2ccccc21,-3,-5.2,14%[15.4 µM],8,-9%,5
CCCS(=O)(=O)N1CCC(C(=O)NCCCN(CC)c2cccc(C)c2)CC1,17,-0.4,-6%,3,11%,5
CC(C)CCn1nnnc1CN1CCN(c2ccc(F)cc2)CC1,-11,-1.8,-2%[15.4 µM],-8,3%,-3
Cc1ccc(C(=O)N/C(=C/C=C\c2ccccc2)C(=O)NCc2ccco2)cc1,-8,-1.5,-10%[15.4 µM],-9,-5%,-9
CCCN(CCC)S(=O)(=O)c1ccc(C(=O)NNc2nc(-c3ccccc3)c3cc(Br)ccc3n2)cc1,3,2.1,25%,-10,10%,-4
COc1cc([N+](=O)[O-])ccc1NC(=O)Nn1cnnc1,-38,-7.3,-37%[inhibitor],-4,3%,-4
CN(CC(=O)NC1CCCC1)S(=O)(=O)c1cccc(Cl)c1,-23,-2.4,1%[15.4 µM],8,-3%,7
Cc1ccc(S(=O)(=O)N2CCN(C(=O)CN3CCOCC3)C2c2ccccc2)cc1 (stereo not given),9,-4.8,-2%,-1,1%,-3
Cc1ccc2nc(CSc3nnc(-c4ccco4)o3)cc(=O)n2c1,-10,-3.1,9%,-2,12%,2
COC(=O)CN(c1ccc(OC)cc1)S(=O)(=O)c1c(C)noc1C,?,1.0,18%,-1,6%,6
CCOC(=O)c1ccc(/C=N/O)[n+](Cc2ccccc2)c1,-24,-3.8,-6%,21,3%,.
O=C(CCC(=O)N(c1ccc(F)cc1)C(C(=O)NC1CCCC1)c1ccncc1)Nc1cccnc1 (stereo not given),-3,-0.3,-10%,2,4%,5
O=C(COC(=O)c1ccccc1Nc1ccc(SC(F)F)cc1)NC1CC1,-2,1.2,-30%,10,-29%,11

# 3 of the compounds above, with tabs.
mol	D2 PAM	D2 agonist	gsp agonist	Six1-Eya2 inh	gsp antagonist	CtBP-E1A inh
O=C(NCCCn1ccnc1)c1ccc(Cl)c(S(=O)(=O)N2CCOCC2)c1	-7	2.1	-2%	-4	9%	-9
O=C(c1ccc(N2CCN(C(=O)c3cccc(F)c3)CC2)cc1)c1cccc(F)c1	0	2.4	3%	7	32µM*	-7
O=C1CSC(c2cccc([N+](=O)[O-])c2)N1CCc1ccccc1 (stereo not given)	-4	1.4	11%[15.4 µM]	-18	-16%	-2

# (list continues)
SMILES,D2 PAM,D2 agonist,gsp agonist,Six1-Eya2 inh,gsp antagonist,CtBP-E1A inh
CC1(C)CNC(=O)c2sc(NC(=O)c3ccccc3Cl)nc2C1,0,-3.4,3%,4,-18%,5
Cc1ccc(S(=O)(=O)N2CCCCC2)cc1NC(=O)CCNC(=O)c1ccccc1,-16,-5.6,2%,5,1%,-13
Cc1ccc(CSc2nc(N)cc(=O)[nH]2)cc1,-11,-2.1,-39%,1,0%,.
O=C(N/N=C/C=C/c1ccco1)c1cccs1,3,1.7,7%,-17,-2%,-4
O=C(Nc1ccccn1)C1CCN(S(=O)(=O)c2ccc3ccccc3c2)CC1,-21,-5.7,38%[15.4 µM],-8,4%,-1
O=C(NCc1cc2ccccc2[nH]1)C1CCC(=O)N(CC2CCCCC2)C1 (stereo not given),-9,-0.2,-9%,-1,.,-13
Cc1ccc(C(=O)NCC(=O)OCC(=O)NC2CCS(=O)(=O)C2)cc1C (stereo not given),-7,-2.0,7%[15.4 µM],10,11%,1
CC1(c2ccccc2)CCC(=O)NC1 (stereo not given),-7,-0.4,-7%,1,6%,3
Cc1cc(CNC[C@H]2O[C@@H](n3ccc(N)nc3=O)[C@H](O)[C@@H]2O)no1,.,-0.9,-10%,3,.,-4
CC(=O)Nc1cccc(C(=O)OCC(=O)Nc2c(C)nn(-c3ccccc3)c2C)c1,-4,-0.1,24%[15.4 µM],3,2%,9
COc1ccccc1N1CCN(C(c2ccc(N(C)C)cc2)c2nnnn2CCc2ccccc2)CC1 (stereo not given),-29,-2.9,15%,-18,11%,-12
COc1ccc(N(CC(=O)N2CCN(c3ccccc3)CC2)S(=O)(=O)c2ccc(C)cc2)cc1,17,4.3,-5%[15.4 µM],-1,4%,5
Cc1onc(-c2ccccc2)c1C(=O)Nc1nc2c(s1)C(=O)CC(C)(C)C2,0,-1.7,11%,11,-19%,28
CCCN(CC(=O)Nc1ccccc1C)C(=O)c1ccc(C(=O)c2ccccc2)cc1,-22,-2.5,-10%,5,-14%,-4
c1ccc(C2CCC(N3CCNCC3)CC2)cc1 (stereo not given),-12,0.0,30%,-1,17%,9
Cc1cccc(NC(=O)C2CCN(S(=O)(=O)c3ccc4c(c3)NC(=O)CO4)CC2)c1,-24,-1.5,17%,0,-9%,-3
CC(=O)OCC(=O)[C@@]1(O)CC[C@H]2[C@@H]3CCC4=CC(=O)C=C[C@]4(C)[C@@]3(Cl)[C@@H](Cl)C[C@@]21C,4,-6.8,.,-1,-2%,0
CCCOc1ccc(F)cc1-c1cc(C(=O)NCc2ccc(C(F)(F)F)cc2)[nH]n1,-7,7.1,.,-3,.,0
CCN(Cc1ccncc1)C(=O)c1ccco1,-10,0.2,-38%[inhibitor],1,7%,6
CCCC1(c2ccccc2)NC(=O)N(CC(=O)Nc2ccccc2C(F)(F)F)C1=O (stereo not given),-9,-3.7,-7%[15.4 µM],-1,-3%,10
O=C(NCC1CCCO1)c1ccc(Cl)c(S(=O)(=O)N2CCCCC2)c1 (stereo not given),-12,-3.2,?,8,2%,5
